E coli growth = E. coli growth inhibition, primary screen, OD600 | AID 1053175, 2014 | Escherichia coli growth, 23 h; hits give low values | 330,000 compounds, 0.21% hits | OD600 absorbance (no concentration beside the values);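 active = OD600 absorbance below the run mean of sample wells minus 3.6 SD, in any replicate, cut at about 0.56 in these data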;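 also: stock transfer was 300 nL into about 60 µL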
UCH37 inh = inhibitors of human UCH37 deubiquitinase, primary screen, biochemical, Ub-AMC cleavage, fluorescence; Ubiquitin carboxyl-terminal hydrolase isozyme L5 (Homo sapiens), Q9Y5K5; purified proteasome/UCH37; inhibition, % (test concentration not listed); 330,000 compounds, 0.33% hits; AID 588478, 2011;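 active = mean of two replicates above 20%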;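 also: 0% = compound-free wells with enzyme and 100% = wells lacking proteasome; stock transfer was 100 nL into about 20 µL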
Target sequence (Q9Y5K5 whole entry, looked up): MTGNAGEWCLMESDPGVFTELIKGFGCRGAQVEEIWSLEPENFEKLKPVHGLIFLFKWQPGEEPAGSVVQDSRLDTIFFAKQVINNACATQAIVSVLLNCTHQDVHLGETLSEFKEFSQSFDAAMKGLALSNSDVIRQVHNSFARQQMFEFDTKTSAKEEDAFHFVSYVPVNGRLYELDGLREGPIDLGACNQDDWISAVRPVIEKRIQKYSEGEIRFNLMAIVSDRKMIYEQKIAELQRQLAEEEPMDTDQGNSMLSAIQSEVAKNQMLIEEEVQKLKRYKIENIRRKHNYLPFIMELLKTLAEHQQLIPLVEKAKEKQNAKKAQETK
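Schedule: 30 min plus 25 min, room temperature / Material: human UCH37 within purified proteasomes / Technique: AMC fluorescence intensity at 355/460 nm / Buffer or medium: pH 7.4 Tris-HCl (50 mM) with ovalbumin, ATP-MgCl2, DTT / Controls: wells without proteasome as full block, compound-free enzyme plus substrate as uninhibited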
* = called active by the depositor; i = inactive.

SMILES	E coli growth	UCH37 inh
Fc1ccccc1C=Nn1c(COc2ccccc2)n[nH]c1=S	0.701	4.7
ON=C1CCc2cccc3cccc1c23	0.658	-2.5
NC(=NOC(=O)COc1ccc([N+](=O)[O-])cc1)c1ccncc1	0.701	1.5
COc1ccc2c(c1)c(C(=O)NN=Cc1cccc(Br)c1)c(C)n2C	0.689	3.8
Cc1ccc(S(=O)(=O)NN=Cc2cccc3nccnc23)cc1	0.663	4.9
O=C(NN=Cc1cc([N+](=O)[O-])ccc1O)Nc1ccccc1	0.662	5.1
Cc1ccc(CN2CCN(N=Cc3ccccc3)CC2)cc1	0.673	-0.3
Cc1ccc(C=NNC(=O)CC(=O)NCc2cccnc2)cc1	0.681	5.1
COc1ccc2ccccc2c1C=NNC(=O)c1nnn(-c2nonc2N)c1C(C)C	0.673	2.0
COc1ccc(C=NNc2nc(-c3ccc(C)cc3)c(C#N)c(=O)[nH]2)cc1	0.707	i
CC(=NNC(=O)Cn1cc([N+](=O)[O-])cn1)c1ccco1	0.631	4.8
O=c1[nH]ncc(NN=Cc2cccnc2)c1Cl	0.666	9.0
CN(C)c1ccc(C=NNC(=O)CN(c2cccc(Cl)c2)S(C)(=O)=O)cc1Br	0.807	7.1
COc1cc(C=NNC(=O)c2ccc(O)cc2)ccc1Oc1ccc([N+](=O)[O-])cn1	0.699	1.4
COc1ccc(OC)c(C=NNC(=O)c2ccc(=O)n(C)c2)c1	0.675	-36.4
COc1ccc2ccccc2c1C=NNC(=O)CC1(C)OCCCO1	0.645	4.3
N#CCC(=O)NN=Cc1ccc(Sc2nc3ccccc3s2)o1	0.632	4.8
COc1cc(C=NNC(=O)CNC(=O)/C=C/c2ccco2)cc(OC)c1OC	0.624	4.1
FC(F)(F)c1ccc(NN=Cc2cccnc2)nc1	0.604	8.6
COc1ccc(C=Nn2c(C)cc(C)cc2=O)cc1	0.691	1.1
Cc1ccc(S(=O)(=O)NN=Cc2c(C)nn(-c3ccccc3)c2C)cc1	0.732	2.1
CN(C)N=C/C=C1\CCC/C(=C\c2ccc(F)c(F)c2)C1=O	0.683	3.0
CC(=NNc1nc(C)c(C)s1)c1cccc([N+](=O)[O-])c1	0.644	6.5
CC(=NNC(=S)Nc1cccc(C)c1)c1ccco1	0.671	5.7
Nc1nonc1-n1nnc(C(=O)NN=Cc2ccccc2Cl)c1-c1ccc2c(c1)OCO2	0.618	-15.6

SMILES	E coli growth	UCH37 inh
O=C(NN=Cc1ccc2nccnc2c1)c1ccncc1	0.632	11.7
C=C(C)CNC(=S)NN=Cc1c(F)cccc1F	0.699	3.3
NS(=O)(=O)c1ccc(NN=C2CCCCC2C2CCCCC2)c([N+](=O)[O-])c1 (stereo not drawn)	0.741	7.6
CC(=NNC(=O)c1ccc2ccccc2c1)c1cccs1	0.675	-2.1
O=C(O)CNC(=O)CC1S/C(=N/N=Cc2ccccc2O)NC1=O (stereo not drawn)	0.743	10.5
Cc1cccc(C)c1OCc1nc2ccccc2c(=O)n1N=Cc1ccc(OCC(=O)O)cc1	0.693	3.4
Cc1ccc(-n2c(C)cc(C=NNC(=O)CN(c3ccc(C)cc3C)S(C)(=O)=O)c2C)cc1	0.791	3.1
O=C(O)c1cccc2c1C(=NNc1ccc([N+](=O)[O-])cc1[N+](=O)[O-])c1ccccc1-2	0.646	12.7
NS(=O)(=O)c1ccc(NN=Cc2ccc(O)cc2O)c([N+](=O)[O-])c1	0.707	4.9
CC(CCc1ccc2c(c1)OCO2)=N/N=C1/NC(=O)CC(C(=O)Nc2ccc(C(=O)O)cc2)S1 (stereo not drawn)	0.684	-0.3
C#CCn1cc(C=NNC(=O)c2cc3ccccc3o2)c2ccccc21	0.702	-78.2
COc1ccc(OC)c(C(O)=CC(=O)C(=O)Nc2cc(C)cc(C)c2)c1	0.712	0.1
COc1ccc(NC(=S)NN=Cc2cccn2Cc2ccccc2F)cc1	0.753	-0.5
S=C(NN=Cc1ccccc1)N1CCOCC1	0.714	6.0
O=C(CSc1ccccn1)NN=Cc1ccccc1[N+](=O)[O-]	0.705	3.5
O=S(=O)(N=C(Nc1cc(N2CCOCC2)ncn1)c1ccc(F)cc1)c1ccccc1	0.704	-1.8
COc1cccc(C=NNC(=S)Nc2cccnc2)c1	0.642	2.5
Cc1ccc(OCC(=O)NN=Cc2ccncc2)cc1C	0.65	1.4
COc1cccc(C(=O)NN=C/C(Br)=C/c2ccccc2)c1	0.64	4.2
CCOC(=O)C=c1sc(=Cc2ccc3cc(OC)ccc3c2)c(=O)n1CC(=O)NCc1ccc2c(c1)OCO2	0.73	-22.5
CC(=NNC(=O)c1ccc2c(c1)OCO2)c1ccc(NS(C)(=O)=O)cc1	0.712	7.6
O=C1c2cccc3cc([N+](=O)[O-])cc(c23)C(=O)N1N=Cc1ccc(O)cc1O	0.633	5.0
O=C(CN(c1ccc(Cl)cc1)S(=O)(=O)c1ccccc1)NN=Cc1ccco1	0.699	3.8
Cc1nc(CC(=NN)c2ccc(O)cc2O)cs1	0.705	3.4
CC(=NNC(=O)c1nnn(-c2nonc2N)c1CSc1ccccc1)c1ccco1	0.724	3.8

SMILES	E coli growth	UCH37 inh
CC12CCC(CC1=NOC(=O)c1c(F)cccc1F)C2(C)C (stereo not drawn)	0.676	1.7
CC(=NNC(=O)CN1CCN(S(=O)(=O)c2ccc(C)cc2)CC1)c1ccc(O)cc1	0.666	1.5
Fc1ccccc1C=Nn1c(C2CCCCC2)n[nH]c1=S	0.667	2.2
Cc1cc(C)n(N=Cc2cccc([N+](=O)[O-])c2)c(=O)c1	0.65	4.3
Nc1nonc1-n1nnc(C(=O)NN=Cc2c[nH]c3ccccc23)c1-c1ccccc1	0.71	-25.9
NC(Cc1cccc2ccccc12)=NO	0.669	5.4
COc1cc(C=NN2CCOCC2)ccc1OC(=O)c1ccco1	0.641	-0.2
COc1ccc(C=NNC(=O)c2ccc3nc[nH]c3c2)c(OC)c1	0.688	6.3
O=C(Cc1ccccc1)NN=Cc1ccc(S(=O)(=O)O)o1	0.63	2.0
CCc1n[nH]c(=S)n1N=Cc1ccc(N(C)c2ccccc2)cc1	0.707	-1.3
CC(=NNC(=O)C12CCC(C)(C(=O)O1)C2(C)C)c1ccccc1O (stereo not drawn)	0.694	2.5
O=C(Cc1n[nH]c(=O)[nH]c1=O)NN=Cc1ccccc1	0.696	2.4
Cc1ccsc1C=NNC(=O)CSCc1ccc(Cl)cc1	0.731	0.8
CC(=NNC(=O)Cc1ccc(Br)cc1)c1cccnc1	0.669	0.0
Oc1[nH]c2ccccc2c1C=NN1CCCCC1	0.7	10.5
Oc1oc(-c2ccccc2)nc1C=Nc1nccs1	0.684	0.8
CC(=NNC(=O)CNc1cccc(C(F)(F)F)c1)c1cccs1	0.698	0.3
O=C(NN=Cc1cccc(Cl)c1)C(c1ccncc1)N1CCOCC1 (stereo not drawn)	0.692	4.4
Cc1ccsc1C(=O)NN=C/C=C/c1ccccc1[N+](=O)[O-]	0.726	9.8
CC(=NNS(=O)(=O)c1ccc(C)c(C)c1)c1ccncc1	0.712	5.5
O=[N+]([O-])c1cccc(-n2cccc2C=NNc2nc(N3CCCCC3)nc(N3CCCCC3)n2)c1	0.744	5.2
Cc1ccc(C=NNc2ccc(F)cc2F)s1	0.682	4.3
COc1ccccc1OCCn1cc(C=NNC(=O)c2ccncc2)c2ccccc21	0.661	7.1
Cn1c(C(=O)NN=Cc2ccccc2)cc2ccccc21	0.723	1.2
CON=Cc1c(C(=O)OC)nn(-c2ccccc2)c1Cl	0.648	1.3

Of the compounds above, these contain a cyano group.
SMILES	E coli growth	UCH37 inh
COc1ccc(C=NNc2nc(-c3ccc(C)cc3)c(C#N)c(=O)[nH]2)cc1	0.707	i
N#CCC(=O)NN=Cc1ccc(Sc2nc3ccccc3s2)o1	0.632	4.8

A different layout for part of the listing above:
Cc1ccc(C=NNC(=O)CC(=O)NCc2cccnc2)cc1
  E coli growth: 0.681	UCH37 inh: 5.1

COc1ccc2ccccc2c1C=NNC(=O)c1nnn(-c2nonc2N)c1C(C)C
  E coli growth: 0.673	UCH37 inh: 2.0

COc1ccc(C=NNc2nc(-c3ccc(C)cc3)c(C#N)c(=O)[nH]2)cc1
  E coli growth: 0.707	UCH37 inh: i

More results follow.
SMILES	E coli growth	UCH37 inh
Cc1cc(C(=O)NN=Cc2cc(Br)cc(Br)c2OC(=O)c2cccc(F)c2)n[nH]1	0.732	-1.3
COc1cc(C=NNC(=O)CSc2ccccn2)ccc1OC(C)C	0.705	5.0
CC(=NNC(=O)CSc1nc2ccccc2s1)c1ccncc1	0.641	5.9
O=C(CN1CCN(S(=O)(=O)c2ccc(Br)cc2)CC1)NN=Cc1ccc(Br)s1	0.645	4.6
O=C(NN=Cc1cccc([N+](=O)[O-])c1)c1ccc2c(c1)OCCO2	0.674	3.6
COc1cc(C=NNC(=O)C(N)=O)cc(OC)c1O	0.717	11.5
CC(=O)Oc1ccc(C=NNC2=NS(=O)(=O)c3ccccc32)cc1	0.672	18.4
Cc1ccc(C=NN=C2SCC(=O)N2CC2CC2)cc1	0.666	2.5
COC(=O)COc1ccc(S(=O)(=O)Nc2cc(OC)ccc2OC)cc1	0.629	3.3
O=C(CON=Cc1ccccc1OC(F)F)NCc1ccco1	0.711	0.2
CS(=O)(=O)N(CC(=O)NN=Cc1cccc2c1OCCO2)c1ccccc1Br	0.727	2.4
CCC(=O)NN=C(C)CC(=O)Nc1ccc2ccccc2c1	0.673	0.9
C(=NNc1ccccn1)c1cccnc1	0.646	12.6
NC(=S)NN=Cc1cc([N+](=O)[O-])ccc1OCCOc1ccccc1	0.742	4.8
COc1ccccc1/C=C/C=Nn1c(-c2ccc(F)cc2)n[nH]c1=S	0.703	3.7
CCOC(=O)NN=C/C=C/c1ccc2c(c1)OCO2	0.689	-6.8
COc1ccc(C=NNc2nnc(Cc3ccc(OC)c(OC)c3)c(=O)[nH]2)cc1OC	0.677	5.2
Clc1cccc(Cl)c1CONC=Nc1ncnc2sccc12	0.793	2.4
CC(=NNC(=O)c1ccccc1O)c1c(O)cc(C)oc1=O	0.661	10.7
COc1cc2ccccc2cc1C(=O)NN=Cc1ccc2c(c1)OCO2	0.671	-30.8
COc1ccc(C=NN2CCN(C)CC2)c(OC)c1OC	0.668	1.5
CCOc1ccc(-c2c(C(=O)NN=Cc3ccco3)nnn2-c2nonc2N)cc1	0.703	3.2
CC1(C)CC(=O)CC(=NNC(=O)c2ccc(-c3ccccc3)cc2)C1	0.632	3.1
Cc1ccc(C=NNc2nc3ccccc3s2)o1	0.68	4.9
O=C(NN=Cc1c[nH]c2ccc(Br)cc12)c1ccn(Cc2ccc(Cl)cc2)n1	0.714	0.3

SMILES	E coli growth	UCH37 inh
O=C(O)c1cccc(Cn2c(Cl)c(C=NNC(=O)c3ccccc3O)sc2=O)c1	0.654	13.1
O=C(CNc1cccc2ccccc12)NN=Cc1ccc([N+](=O)[O-])cc1	0.752	0.0
CC(=NNC(=O)c1c([N+](=O)[O-])c(C)nn1C)c1ccc(NC(=O)c2ccc(C)o2)cc1	0.723	6.8
C=CCOc1ccc(C(CC)=NO)cc1OC	0.687	-0.3
CC(C)NC(=O)CC(=O)NN=Cc1cccs1	0.67	4.0
CC(=NS(=O)(=O)c1ccc(C)cc1)N1CCN(S(=O)(=O)c2ccccc2)C1C(C)C (stereo not drawn)	0.671	5.4
O=C(CC1S/C(=N/N=Cc2cccs2)NC1=O)Nc1ccccc1F (stereo not drawn)	0.708	5.0
COc1ccc(N(CC(=O)NN=Cc2ccc(OC3CSC3)cc2)S(=O)(=O)c2ccccc2)cc1	0.73	1.8
COc1cc(C=NNC(=O)c2ccc3nc[nH]c3c2)ccc1O	0.686	4.4
O=[N+]([O-])c1ccc(-c2ccc(C=Nn3cnnc3)o2)c(Br)c1	0.703	8.0
Cc1ccc(C=NNC(=O)Cn2ccc(C(F)(F)F)n2)o1	0.681	5.1
CC(=O)Oc1ccc(C=NNC(=O)c2ccc(N(C)S(=O)(=O)c3ccccc3)cc2)cc1	0.667	7.3
Cc1cc(C)cc(-n2c(C)cc(C=NNC(=O)c3ccncc3)c2C)c1	0.699	6.2
CC(=NOc1nc(C)cc(C)n1)c1ccccc1	0.7	-0.6
CC(CCCO)=NNc1ccc([N+](=O)[O-])cc1[N+](=O)[O-]	0.688	11.2
N#Cc1ccc(CON=Cc2ccccc2)cc1	0.68	1.4
COc1ccc2cc(C=NNC(=O)c3ccc(CN(c4cccc(Cl)c4Cl)S(C)(=O)=O)cc3)c(Cl)nc2c1	0.697	-213.3
O=C(NN=Cc1cc([N+](=O)[O-])c(N2CCOCC2)cc1N1CCOCC1)c1cccnc1	0.673	23.0*
O=C(NN=Cc1ccc(Cl)cc1)c1ccc2c(c1)OCO2	0.618	3.5

Only part of the results is shown (hit frequency here may not be typical).
